Screening data (PubChem)
MgrA-DNA mod: modulators of Staphylococcus aureus MgrA DNA binding; fluorescence polarization; inhibition, %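 (about 10 µg/mL by stock and volumes)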; hit rate 0.13% among 84,000; AID 602314;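 active = above 50% in either of two replicates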;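 also: 0% = protein plus DNA without compound and 100% = DNA alone without protein; higher means less MgrA bound to DNA so lower polarization; one replicate is shown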
S aureus helic: blocks Staphylococcus aureus DNA helicase | purified S. aureus helicase, fluorescence unwinding assay; about half of the hits fall short of the stated cut | inhibition, %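 (tested at about 80 µM)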 | hit rate 0.05% among 120,000 | AID 485395;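 active = both duplicates at 50% or more, or one of them with a favoured structure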;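 also: 0% = mean of negative control wells and 100% = mean of positive control wells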
* marks the source's active call; other numbers are inactive results; . = no result given.

SMILES	MgrA-DNA mod	S aureus helic
CC1C=CCC2C(=O)N(c3cccc(Cl)c3)C(=O)C12 (stereo unspecified)	1.9	-4
Cn1c(SCC#N)nnc1-c1ccccc1	14	3
CCOc1ccccc1C=Nc1ccc(S(=O)(=O)N2CCc3ccccc32)cc1	0.3	0
CCOC(=O)C1=C(C)N=c2s/c(=C/c3ccc(OC(C)=O)cc3)c(=O)n2C1c1ccc(OC(C)=O)c(OC)c1 (stereo unspecified)	0.7	.
O=C(NCC(c1ccco1)S(=O)(=O)c1ccccc1)Oc1ccccc1 (stereo unspecified)	.	4
CC1(C(=O)NC2CCCCC2)Cc2ccccc2C(=O)N1C1CCCCC1 (stereo unspecified)	0.2	-4
CCC(=O)Nc1nonc1-c1ccc(C)cc1	.	-17
COc1ccc(Oc2cnc3ccccc3n2)cc1	-0.7	.
Cc1c(C(=O)NCCC(C)C)oc2ccc(Br)cc12	.	-14
CCOC(=O)c1sc(NC(=O)CSc2ncccn2)nc1C	-3.5	24
C=CCc1c(O)nc2n(c1=O)CCCS2	.	9
C/C(=N\N)c1cc(C(=O)NN)c(=O)[nH]c1C	.	-21
Cc1ccc(NC(=O)CN2C(=O)S/C(=C/c3ccc4c(c3)n(C)c(=O)n4C)C2=O)cc1C	-0.8	11
COC(=O)C1=C(NC(=O)c2ccc(N3C(=O)CCC3=O)cc2)CCS1	.	-17
Cc1cc(C(=O)CSc2nncs2)c(C)n1CC(F)(F)F	.	13
NC1=NC(=Nc2cccc(C(F)(F)F)c2)c2ccccc21	2.5	17
CC(C)CCNC(=O)c1cccc(S(=O)(=O)NCc2ccccc2)c1	0.7	-17
O=C(O)c1ccc(Br)o1	0.1	.
CN(C1CCCCC1)S(=O)(=O)c1ccc(CN2C(=O)c3cccnc3C2=O)cc1	.	15
Cc1noc(C)c1S(=O)(=O)NC1Cc2ccccc2C1	-0.4	.
COc1cc(-c2nc(SCC(=O)NC3CCCC3)c(-c3ccccc3)[nH]2)cc(OC)c1OC	.	14
Cc1ccc(C)c(NC(=O)CN2C(=O)C3CC=CCC3C2=O)c1 (stereo unspecified)	.	-9
O=S(=O)(c1ccc2c(c1)CCO2)N1CCCN(c2nccc(C(F)(F)F)n2)CC1	.	17
CN1/C(=C\C=N\O)C(C)(C)c2ccccc21	.	0
CCc1nnc2n1Nc1nc3ccccc3nc1S2	.	7

5 records drawn at random from those above:
SMILES	MgrA-DNA mod	S aureus helic
CCC(=O)Nc1nonc1-c1ccc(C)cc1	.	-17
COc1cc(-c2nc(SCC(=O)NC3CCCC3)c(-c3ccccc3)[nH]2)cc(OC)c1OC	.	14
COC(=O)C1=C(NC(=O)c2ccc(N3C(=O)CCC3=O)cc2)CCS1	.	-17
O=S(=O)(c1ccc2c(c1)CCO2)N1CCCN(c2nccc(C(F)(F)F)n2)CC1	.	17
Cc1ccc(NC(=O)CN2C(=O)S/C(=C/c3ccc4c(c3)n(C)c(=O)n4C)C2=O)cc1C	-0.8	11

Back to the main list, starting two compounds before the break.
SMILES	MgrA-DNA mod	S aureus helic
CN1/C(=C\C=N\O)C(C)(C)c2ccccc21	.	0
CCc1nnc2n1Nc1nc3ccccc3nc1S2	.	7
COC(=O)n1c(SC)nc2ccccc21	2.3	0
CCN(CC)c1ccc(N=Cc2cc(C)n(-c3ccc(OC(C)=O)cc3)c2C)cc1	-1.6	7
CCN(CC)C(=O)c1cccc(NC(C)=O)c1	.	4
CS(=O)(=O)N(CC(=O)NCc1ccccc1)c1cc(C(F)(F)F)ccc1Cl	2.5	9
Cc1cccc(N2CCN(C(=O)C(C)(C)Oc3ccc(Cl)cc3)CC2)c1C	.	-5
CC(=NCCN1CCN(C(=O)c2ccccc2)CC1)c1c(C)[nH]n(-c2nc3ccccc3s2)c1=O	-0.8	4
c1csc(CNC2CC2)c1	0.2	1
O=c1[nH]cc(NC2CCCCC2)c(=O)[nH]1	.	-1
COc1ccc(S(=O)(=O)Nc2ccc(S(=O)(=O)N3CCCC3)cc2)cc1C	-1.8	6
Cc1ccc(-c2nnc(NC(=O)COc3ccccc3)s2)cc1	.	15
O=C(O)/C=C/c1cccs1	-0.2	-6
CC(=O)Nc1cc(C(=O)NCCN2CCN(c3ccccc3)CC2)ccc1S(=O)(=O)c1ccc(C)cc1	.	3
O=c1nc(N2CCOCC2)ccn1Cc1ccc(Cl)cc1	0.1	4
COC(=O)c1ccccc1NC(=O)CSc1nc2ccsc2c(=O)n1-c1ccc(C)c(C)c1	-0.2	-1
CC(CNC(=O)CCc1nnc2n(Cc3ccccc3)c(=O)c3ccccc3n12)c1ccccc1 (stereo unspecified)	1.9	-4
CCN(c1ccccc1)S(=O)(=O)c1ccc2c(c1)CC(C)N2C(=O)C1CC1 (stereo unspecified)	.	-11
O=C(Cc1ccccc1)NCc1nc(-c2ccccc2)no1	2.5	11
COc1cc(N=C(SCc2c(C)c(C)c(C)c(C)c2C)N2CCOCC2)c(OC)cc1Cl	-2.2	.
CNc1c(NC(=O)c2ccco2)c(=O)oc2ccccc12	.	-30
N#CC1=C(N)C(C#N)(C#N)C(c2ccccc2)C2CNCC=C12 (stereo unspecified)	3.0	-1
O=C(CSc1ccccc1)NCCc1ccccc1	2.1	-6
Nc1c(C(=O)Nc2ccccc2)c2nc3ccccc3nc2n1CCCN1CCOCC1	.	-11
COCCn1c(N)c(NCc2ccccc2)c(=O)n(CC(=O)Nc2cc(C)ccc2C)c1=O	.	-7
CCN(CC)C(=O)CSc1n[nH]c(=S)s1	.	5
Cc1ccc(Cl)cc1-n1ncc2c(NCC3CCCO3)ncnc21 (stereo unspecified)	.	-4

6 compounds from above, ordered by their value in MgrA-DNA mod, ascending:
SMILES	MgrA-DNA mod	S aureus helic
CCN(CC)c1ccc(N=Cc2cc(C)n(-c3ccc(OC(C)=O)cc3)c2C)cc1	-1.6	7
CC(=NCCN1CCN(C(=O)c2ccccc2)CC1)c1c(C)[nH]n(-c2nc3ccccc3s2)c1=O	-0.8	4
O=C(O)/C=C/c1cccs1	-0.2	-6
O=c1nc(N2CCOCC2)ccn1Cc1ccc(Cl)cc1	0.1	4
COC(=O)n1c(SC)nc2ccccc21	2.3	0
O=C(Cc1ccccc1)NCc1nc(-c2ccccc2)no1	2.5	11

Entries shown so far that contain a COOH group, in the order listed:
SMILES	MgrA-DNA mod	S aureus helic
O=C(O)c1ccc(Br)o1	0.1	.
O=C(O)/C=C/c1cccs1	-0.2	-6

More structures.
SMILES	MgrA-DNA mod	S aureus helic
CC1CCCN(C/C(O)=C(\C#N)c2nc3ccccc3[nH]2)C1 (stereo unspecified)	0.2	6
OP(Oc1ccccc1)(Oc1ccccc1)=P(O)(Oc1ccccc1)Oc1ccccc1	-0.2	4
CCN(CC)S(=O)(=O)c1ccc(NC(=O)COC(=O)Cn2[nH]c(=O)c3ccccc3c2=O)cc1	.	-3
NC(=O)N/N=C/c1c(F)c(F)c(F)c(F)c1F	.	16
C=C1N(c2ccccc2C)C(=O)OC1(C)C	-1.4	19
CCOC(=O)C(C)(C)Sc1nc2c(cnn2-c2ccc(Cl)cc2)c(=O)[nH]1	4.0	7
O=C(CN1CCCc2ccccc21)Nc1ccc(Cl)c(Cl)c1	0.0	-3
COc1cccc(-c2ccc(-c3noc(-c4cccnc4)n3)c(OC)n2)c1	1.5	23
COC(=O)CC1C(=O)NCCN1C(=O)Nc1ccccc1 (stereo unspecified)	0.0	11
Clc1cccc(CN2CCN(Cc3ccco3)CC2)c1	-5.5	-6
Cn1c(NN)nc2c(c1=O)C1(CCCC1)Cc1ccccc1-2	0.0	1
NC(=S)Nc1ccc(OCc2ccccc2)cc1	.	4
Cc1ccc(CNC(=O)C2C3C=CC4(CN(Cc5cccs5)C(=O)C24)O3)cc1 (stereo unspecified)	0.4	6
CC(=O)Nc1ccccc1Br	.	25
O=C(CN1CCCCC1)Nc1ccc(I)cc1	-1.8	.
CC(C)OC(=O)c1ccc(N)cc1	0.3	17
CC1CCC(=C(C#N)C(=O)NCc2ccccc2)CC1 (stereo unspecified)	0.6	-19
C=CCn1c(COc2cccc(C)c2)nnc1SCC(=O)N1CCNC1=O	.	-8
COc1ccc(C2=NC(=O)/C(=C\c3cccc(F)c3)O2)cc1	3.8	5
O=C(c1cnc(N2CCCC2)nc1)N1CCCC1	10	8
N#Cc1c(Nc2ccccc2)sc(C(=O)c2cccs2)c1N	-0.4	4
CCOC(=O)C1CCN(c2ccccc2CN2CCCc3cc(C)ccc32)CC1	0.6	.
NC[C@@H]1O[C@H](O[C@@H]2[C@@H](CO)OC(O[C@@H]3[C@@H](O)[C@H](N)C[C@H](N)[C@H]3O[C@H]3O[C@H](CO)[C@@H](O)[C@H](O)[C@H]3N)[C@@H]2O)[C@H](N)[C@@H](O)[C@@H]1O (stereo partly specified)	1.2	.
O=C(CN1C(=O)c2ccccc2C1=O)Nc1cccnc1	-0.3	8
Cc1onc(-c2ccccc2Cl)c1C(=O)N1CC(C)CC(C)C1 (stereo unspecified)	-0.2	-2
CSc1nnnn1-c1ccc(C(N)=O)cc1	0.3	3

These rows are one share of the data, so the mix of outcomes need not match the whole.
